eIF4H inh = inhibitors of RNA binding by human eIF4H. 290,000 tested, 0.94% active. eIF4H fluorescence polarization binding assay. Q15056. inhibition, % at 35 µM;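 active = 50% or more with normal probe brightness, or confirmed in later tests; inconclusive = above 50% with abnormal brightness, or retests that disagree; inactive = below 50% or failed in later tests; about a fifth of its hits are not listed in these tables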;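 note: calls also rest on retests at 20 µM and on dose response follow-up; 0% = protein and probe with vehicle and 100% = probe without protein; strong numbers were not always called active; many hits fall short of the cut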
HIV Env fusion = inhibitors of HIV Env-mediated cell fusion | 360,000 tested, 1.1% active | inhibition, % at 12.3 µM | HeLa-JRFL Env/CEM21 cell fusion, luciferase | AID 651610;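 active = mean replicate inhibition score of at least 50 and every replicate individually at or above 50; inconclusive = only one of the two criteria met; inactive = mean below 50 and not all replicates reaching 50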;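 note: 0% = plate neutral controls and 100% = maraviroc near 300 nM; one replicate is shown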
CSC inhib = cancer stem cell inhibition; 300,000 tested, 1.1% active; cancer stem cell-like cells viability, luminescence; AID 2717; inhibition, % at 7.5 µM;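 active = mean at 75% or more and at least half the replicates too; inconclusive = mean and replicates disagree; tested in HMLE shEcad cells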;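 note: 0% = median of negative and 100% = median of positive control wells; the first replicate is given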
Rce1 inhib = blocks yeast Ras-converting enzyme | Q03530 | yeast membranes, quenched prenylated peptide cleavage fluorescence | calls only | 290,000 tested, 0.27% active;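 active = fall in fluorescence gain of 50% or more versus controls, with final raw signal at or below 3038400; inconclusive = same 50% fall but final raw signal above 3038400; inactive = fall in fluorescence gain under 50%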;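 note: plate controls were neutral control wells for no effect and wells lacking membranes for full effect; tested at 10 µM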
Target sequence (Q03530 whole entry, looked up): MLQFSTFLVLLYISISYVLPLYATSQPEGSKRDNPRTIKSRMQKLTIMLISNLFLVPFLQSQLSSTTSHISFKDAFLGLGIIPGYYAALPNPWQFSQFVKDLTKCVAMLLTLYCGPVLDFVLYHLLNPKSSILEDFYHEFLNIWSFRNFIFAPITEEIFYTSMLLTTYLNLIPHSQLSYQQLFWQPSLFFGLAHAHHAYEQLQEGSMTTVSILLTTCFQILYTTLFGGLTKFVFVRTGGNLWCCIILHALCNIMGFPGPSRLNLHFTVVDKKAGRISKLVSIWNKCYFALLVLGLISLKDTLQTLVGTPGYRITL
UUG fidelity = modulators of start codon recognition fidelity in yeast | S. cerevisiae UUG-firefly luciferase reporter, luminescence/redox ratio | activity score, % at 18.7 µM | 350,000 tested, 0.13% active | AID 602363;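 active = replicate mean at a twofold rise or more, about +100% in these data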;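 note: firefly luciferase made from a UUG start codon reports start codon fidelity; reporter light over untreated wells divided by growth signal over untreated wells; some hits fall short of that in this replicate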
PABP polyA inh = PABP-poly(A) binding inhibition; P11940; PABP-poly(A) RNA binding, fluorescence polarization; inhibition, % at 35 µM; 290,000 tested, 1% active; AID 2014;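 active = 50% or more with normal probe brightness, or confirmed in later tests; inconclusive = above 50% with abnormal brightness, or retests that disagree; inactive = below 50% or failed in later tests; about a fifth of its hits are not listed in these tables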;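 note: calls also rest on retests at 20 µM and on dose response follow-up; controls were probe without protein and protein plus probe with vehicle; some compounds called inactive have numbers as strong as hits; many hits fall short of the cut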
Target sequence (P11940 whole entry, looked up): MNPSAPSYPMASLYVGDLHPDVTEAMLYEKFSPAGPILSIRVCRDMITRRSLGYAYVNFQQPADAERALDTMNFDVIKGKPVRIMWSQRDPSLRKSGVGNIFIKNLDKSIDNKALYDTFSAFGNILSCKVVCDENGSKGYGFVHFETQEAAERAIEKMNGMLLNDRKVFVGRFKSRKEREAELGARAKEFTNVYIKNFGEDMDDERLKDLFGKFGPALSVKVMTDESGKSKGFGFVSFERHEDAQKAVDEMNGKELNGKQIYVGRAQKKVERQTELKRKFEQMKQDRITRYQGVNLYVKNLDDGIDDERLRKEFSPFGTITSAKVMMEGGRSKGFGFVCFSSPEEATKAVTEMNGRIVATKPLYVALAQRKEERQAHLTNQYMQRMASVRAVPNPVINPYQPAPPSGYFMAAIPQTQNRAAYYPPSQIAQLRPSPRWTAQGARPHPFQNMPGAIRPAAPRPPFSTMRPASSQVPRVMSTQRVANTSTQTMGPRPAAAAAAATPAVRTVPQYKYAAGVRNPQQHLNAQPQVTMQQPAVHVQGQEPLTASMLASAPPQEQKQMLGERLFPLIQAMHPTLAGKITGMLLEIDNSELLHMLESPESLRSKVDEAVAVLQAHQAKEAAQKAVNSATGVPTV
MT1-MMP act inh = blocks activation of human MT1-MMP; 360,000 tested, 0.061% active; P50281; GFP/RFP ratio change, % at 20 µM; HT1080 RFP-PRO-GFP cells, GFP/RFP ratio fluorescence, overnight; percent of plate control window, DMSO zero;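 active = GFP/RFP ratio change of at least 30% with cell ATP level not reduced by more than half and red fluorescence within 50% of control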; note: strong numbers were not always called active
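system = RFP-PRO-GFP reporter HT1080 cells | dosing = 20 µM single dose, 1% DMSO | timing = overnight cell settling, then overnight compound exposure, 37 °C, 5% CO2 | read-out basis = GFP/RFP fluorescence ratio | controls = DMSO and RFP-L50D-GFP cell wells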
MT1-MMP act inh RFP = further read-out of MT1-MMP act inh, marked with its call; RFP signal change, %; measured here: RFP expression control read;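 0 = vehicle wells; hits needed this value within 50% of zero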
* marks the source's active call; other numbers are inactive results; i = inactive; u = inconclusive; x = not tested or not shown.

SMILES | eIF4H inh | HIV Env fusion | CSC inhib | Rce1 inhib | UUG fidelity | PABP polyA inh | MT1-MMP act inh | MT1-MMP act inh RFP
COC(=O)C1=C(N)Oc2cc(C)n(CCCn3ccnc3)c(=O)c2C1c1ccc(Cl)cc1 (stereo not given) | -2.5 | x | -19.5 | i | -12.6 | 3.4 | -3.4 | -4.0
O=c1[nH]c(Cc2ccccc2Cl)nc2ccccc12 | -0.1 | 26.3 | -4.5 | i | x | -7.9 | -0.8 | 1.5
CN(Cc1ccccc1)C(=O)c1ccc(NC(=O)Cc2ccc([N+](=O)[O-])cc2)cc1 | x | 5.5 | 7.0 | x | 12.5 | x | 8.4 | -7.8
O=C(NCCc1c[nH]c2ccc(Cl)cc12)c1ccc([N+](=O)[O-])cc1 | 5.3 | -17.0 | x | i | -11.1 | 16.4 | -0.8 | -3.9
COc1ccc(Nc2nc(NCc3ccco3)nc(N/N=C/c3ccccc3)n2)cc1 | 10.2 | x | x | i | -34.8 | 18.2 | 6.3 | 3.0
COc1cc(CNCCNC(=O)c2nonc2N)ccc1OCc1ccc(Cl)nc1 | 2.4 | -10.8 | -18.6 | i | -4.9 | -16.7 | 4.9 | 0.7
O=C(COc1ccc(F)cc1F)N1CCCCCCC1 | -7.9 | -70.9 | -2.5 | i | 8.2 | 0.1 | -1.3 | 1.0
COC(=O)c1sccc1NC(=O)c1ccc(Br)o1 | -3.8 | x | -2.9 | i | -10.2 | -3.8 | -2.7 | -6.3
COC(=O)CSc1nc2nc(C)c(Br)cc2[nH]1 | 1.5 | -118.2 | -17.5 | i | -19.8 | 3.7 | -1.7 | 1.1
CC(=O)N1C(=O)CC(C)N(C(C)=O)c2ccc([N+](=O)[O-])cc21 (stereo not given) | -4.7 | -18.2 | -0.7 | i | 6.4 | -2.0 | 0.2 | -0.5
CN(C)c1ccc(/C=C/c2nc3ccccc3c(=O)n2CCO)cc1 | 15.6 | 2.5 | 43.5 | i | -1.6 | -7.2 | -52.2 | 2.9
CC1(C)N=C(N)N=C(N)N1c1cccc(CN)c1 | -1.3 | -8.2 | -12.6 | i | x | 26.9 | 3.2 | 7.4
CCCNS(=O)(=O)c1ccc(CCC(=O)NCc2ccco2)cc1 | -3.0 | -31.1 | -6.9 | i | -14.0 | 6.0 | -0.7 | 6.7
O=C(Nc1ccccc1C(=O)N1CCOCC1)c1cccc(S(=O)(=O)N2CCCC2)c1 | -20.0 | x | x | i | x | -6.7 | 1.9 | 2.1
COC1Cc2ccccc2N(C(=O)N2CCN(CCO)CC2)c2ccccc21 (stereo not given) | 0.0 | x | -11.8 | i | -9.2 | 14.2 | -1.4 | 2.1
CC1(C)CC(NC(=O)c2cc(COc3cccc(C(F)(F)F)c3)on2)CCO1 (stereo not given) | 0.4 | -8.0 | -1.8 | i | -4.9 | -2.3 | 4.5 | -10.9
O=C(CN1C(=O)C2C3C=CC(C3)C2C1=O)Nc1nc(SCc2ccc(Cl)cc2)n[nH]1 (stereo not given) | 4.4 | 19.7 | 5.6 | i | -23.4 | -2.9 | 8.0 | 4.7
O=C(NCCc1c[nH]c2ccccc12)c1cnccn1 | -6.3 | 5.4 | -2.1 | i | x | -1.5 | 5.0 | 8.7
Cc1c(Cl)c([N+](=O)[O-])nn1CC(=O)NCc1ccco1 | -4.9 | x | -13.8 | i | x | -5.8 | 2.0 | 6.2
Cc1nc(CCNC(=O)c2ccccc2)cs1 | 2.7 | x | 1.1 | i | x | -2.0 | 5.8 | 6.2
COc1ccc(-c2ccnc(SCC(=O)N3CCOCC3)n2)cc1 | -2.7 | -9.2 | -17.9 | i | -6.1 | 1.0 | 3.6 | 1.5
O=[N+]([O-])c1cccc(-c2c(-c3ccccc3)ncc3cc(F)ccc23)c1 | x | -57.0 | 26.7 | x | -9.4 | x | -1.1 | -4.9
COc1ccc2oc(C(=O)Nc3ccc(S(=O)(=O)N(C)C4CCN(C)CC4)cc3)c(C)c2c1 | -12.3 | 5.8 | 8.3 | i | -12.2 | -9.1 | -4.8 | -10.9
CCCCOC(=O)Nc1nnc(CC(=O)NCc2ccccc2)s1 | -10.5 | -5.7 | 48.5 | i | -0.8 | -4.4 | 2.3 | 3.6
O=C(CN(C(=O)c1ccc2c(c1)OCCO2)c1ccccc1)NCC1CCCO1 (stereo not given) | -6.2 | x | -28.1 | x | -7.1 | 10.6 | -0.9 | 3.4
COc1ccccc1Oc1coc2cc(OCC(N)=O)ccc2c1=O | -1.3 | 3.3 | -5.1 | i | -12.8 | -6.0 | 7.1 | 7.9
CCn1cc(/C=N\NC(=O)c2ccccc2Cl)cn1 | -1.6 | 5.7 | -11.3 | i | x | -5.9 | -1.0 | 4.1
O=C(CN1CCN(c2ccccn2)CC1)Nc1ccc(OCc2ccccc2)cc1 | -2.6 | x | -0.1 | i | x | -8.8 | 3.5 | -7.2
CC(=O)c1c(N2CCN(C(=O)C3CCCO3)CC2)nc(=S)n(-c2ccccc2)c1C (stereo not given) | 2.5 | x | -8.6 | i | 1.1 | 6.6 | -1.0 | -0.4
COCCn1c(C)cc(C(=O)CSc2nc(C)c(C)c(C)n2)c1C | u | 5.6 | -3.1 | i | x | -9.3 | -4.9 | -2.8
CCc1ccc(/C=N/NC(=O)c2cc(-c3ccncc3)nc3ccccc23)s1 | -5.0 | -96.3 | 1.9 | i | x | -2.1 | 7.5 | -6.2
Cc1cccc(Nc2nc3c(S(=O)(=O)c4ccccc4)nnn3c3ccccc23)c1 | 1.5 | -8.0 | -5.8 | i | -13.4 | -3.0 | 5.4 | 5.0
CC1CCCN(S(=O)(=O)c2cccc(C(=O)OCC(=O)N(C)Cc3c(F)cccc3Cl)c2)C1 (stereo not given) | x | x | -4.7 | x | -3.4 | x | 7.5 | 0.5
COc1ccc(NCC(=O)N/N=C2\CCc3ccccc32)cc1 | -9.5 | -9.6 | -12.5 | i | x | 3.2 | -8.9 | -3.1
CCCC(=O)OCC(=O)c1[nH]c(C)c(C(C)=O)c1C | 19.1 | -0.1 | -5.9 | i | 0.0 | 2.8 | 2.0 | -3.5
COc1ccccc1C(=O)NCCC(=O)N1CCN(c2ccccc2O)CC1 | x | -3.3 | -0.1 | i | -17.8 | x | -1.0 | 0.0
COc1ccc(C(=O)N=C2SC3CS(=O)(=O)CC3N2Cc2ccccc2)cc1OC (stereo not given) | x | 11.5 | 6.3 | i | -13.6 | x | -12.1 | -4.8
COc1ccccc1C(=O)NCC(=O)Nc1ccc2c(c1)OCO2 | x | -23.0 | x | x | -19.6 | x | 2.1 | -3.3
Cc1ccccc1CN1CCN(CC2CC2)CC1CCO (stereo not given) | -11.2 | -11.0 | 3.6 | i | -4.9 | 0.1 | 3.8 | 4.5
Cc1cccc(NC(=O)c2ccc3c(c2)C(=O)N(Cc2cccnc2)C3=O)c1C | 9.2 | 1.5 | -25.3 | i | -13.6 | 0.1 | -1.0 | -1.2
Cc1onc(-c2c(Cl)cccc2Cl)c1NC(=O)NN(C)c1ccc([N+](=O)[O-])cn1 | -1.0 | 5.8 | -9.9 | i | -11.5 | -0.8 | 0.7 | -1.0
O=C(Nc1cccnc1)c1cc(-c2cccc(Cl)c2)on1 | 11.4 | -0.6 | 40.8 | i | -10.6 | 10.2 | 3.8 | 6.0
COc1ccc(-c2nc(CS(=O)CC(=O)N3CCOCC3)c(C)o2)cc1OC (stereo not given) | -11.8 | -0.3 | 13.0 | i | -6.3 | 17.4 | -1.9 | 2.1
COc1ccc(NC(=O)C(=O)N/N=C(\C)CC(=O)Nc2cc(C)ccn2)c(OC)c1 | -13.3 | -1.8 | -2.0 | x | x | -2.3 | 0.0 | 1.5
CNC(=O)NC(=O)COC(=O)c1ccccc1OCc1ccccc1 | -1.0 | -0.2 | 1.7 | i | 11.0 | -6.3 | 0.3 | 1.2
CC(C)CCN(C(=S)NC(=O)C1CCCCC1)c1c(N)n(Cc2ccccc2)c(=O)[nH]c1=O | -19.4 | 9.1 | 3.5 | i | x | -2.1 | -14.7 | -16.7
Cc1cc(C)c(S(=O)(=O)c2ccccc2)c(OC(=O)c2ccc(Cl)cc2Cl)n1 | -2.5 | x | 16.3 | x | -24.4 | 1.0 | -0.2 | 8.1
Cc1cccc(N2CCN(C(=O)CCCn3c(=O)c4cccn4c4cccnc43)CC2)c1C | -3.0 | 18.3 | 32.3 | i | -1.8 | 7.6 | -2.7 | -3.7
Cn1cccc1/C=N/NC(=O)Cc1cccs1 | 0.2 | 17.6 | 2.7 | i | -5.7 | -4.9 | 1.3 | -2.6
Nc1nncn1C(=O)c1cc(Br)ccc1Cl | -6.2 | -71.6 | 8.7 | i | -14.1 | 1.4 | 4.4 | 5.4
CC(C)C(=O)Nc1cc2c(cc1C(=O)c1ccccc1)OCCO2 | -14.8 | x | -4.8 | i | 46.1 | -18.5 | -2.3 | -0.4
CC(=O)Cc1nsc(NC(=O)c2ccc(Cl)cc2Cl)n1 | 8.0 | -2.7 | 3.6 | i | x | 8.6 | 1.6 | -1.0
COc1ccccc1CNC(=O)CS(=O)(=O)c1ccc(C)cc1 | 2.6 | 6.3 | -12.2 | i | -7.0 | -8.9 | -0.2 | 0.9
Cc1cc(C)n(CC(=O)O)n1 | 2.5 | -44.2 | -10.7 | x | -23.7 | -0.2 | 4.0 | 10.0
Cc1sc(/C=C2\C(=O)ON=C2c2ccccc2)cc1Br | -2.7 | x | -0.5 | i | x | -8.3 | x | x
COc1ccc(C(=O)NCC(=O)N/N=C/C(C)=C/c2ccccc2)cc1OC | 11.7 | 10.6 | 3.0 | i | x | -2.0 | -2.8 | -2.4
Cc1ccc(Cn2ncc3c(N4CCOCC4)ncnc32)cc1 | -3.0 | -3.1 | -12.2 | x | -7.4 | -1.5 | 0.4 | -3.8
Cc1cc(N2CCCCC2)nc(N2CCOCC2)n1 | 1.5 | 13.5 | -9.1 | i | -7.2 | -7.2 | -2.0 | 2.8
C/C(=N\O)c1oc2ccc3c(C)cc(=O)oc3c2c1C | 3.3 | 0.6 | 9.9 | i | x | 1.9 | x | x
CCn1c(SCC(=O)Nc2ccc(S(=O)(=O)Nc3ccccn3)cc2)nnc1-c1ccncc1 | 1.7 | x | -8.7 | i | -14.3 | 6.5 | -0.1 | 0.2

The list goes on.
SMILES | eIF4H inh | HIV Env fusion | CSC inhib | Rce1 inhib | UUG fidelity | PABP polyA inh | MT1-MMP act inh | MT1-MMP act inh RFP
Cc1onc(-c2ccccc2Cl)c1C(=O)Nc1c(C)n(C)n(-c2ccccc2)c1=O | 0.0 | x | x | i | -6.4 | -5.0 | 5.3 | 2.7
O=C1NC(NS(=O)(=O)c2ccc(Cl)cc2)(C(F)(F)F)C(=O)N1Cc1cccnc1 (stereo not given) | -1.2 | x | -2.7 | i | -2.0 | 2.4 | 3.1 | 3.9
CCCn1c(CCC(=O)O)nc2cc(S(N)(=O)=O)ccc21 | 1.6 | 18.7 | x | i | x | -3.2 | -0.3 | 0.0
O=C(O)/C=C/C(=O)Nc1ccc(O)cc1 | -7.2 | 7.9 | -5.4 | i | -11.5 | 6.1 | -87.4 | 7.4
Cc1ccsc1C(=O)NCCC(c1ccccc1)c1ccccc1 | -0.3 | 24.4 | -12.5 | i | x | -2.8 | -3.1 | -2.4

Just MT1-MMP act inh and eIF4H inh (two entries from above):
mol,MT1-MMP act inh,eIF4H inh
CC(C)C(=O)Nc1cc2c(cc1C(=O)c1ccccc1)OCCO2,-2.3,-14.8
CC(=O)Cc1nsc(NC(=O)c2ccc(Cl)cc2Cl)n1,1.6,8.0

Compound activity: PubChem, several laboratories

No enrichment for hits; overall some 2.9% were active at least once.
